# Bioassay records from PubChem BioAssay.
# FGF22 binding = binders of recombinant human FGF22 by thermal shift; actives 1.5% (n = 340,000); Q9HCT0; AID 651658; SYPRO orange fluorescence; percent of sucrose octasulfate shift, DMSO zero; calls only at 9.99 µM;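 active = melting point raised past a set limit in the mean and every replicate; inconclusive = no clear call; three in four hits are not shown here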
# B2AR ag = human beta-2 adrenergic receptor agonism by FAP. P07550. Am2.2-beta2AR cells, FAP receptor internalization, flow cytometry; reference of the scale not given here. response, % (no concentration beside the values). actives 0.43% (n = 340,000). AID 504454;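 active = response above a set limit, near 3 SD of response in nonfluorescent compounds, cut at about 42% in these data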;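 also: stock transfer was 100 nL into about 11 µL; a reference agonist was the positive control; negative values mostly stem from fluorescent compounds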
# Target sequence (P07550 whole entry, looked up): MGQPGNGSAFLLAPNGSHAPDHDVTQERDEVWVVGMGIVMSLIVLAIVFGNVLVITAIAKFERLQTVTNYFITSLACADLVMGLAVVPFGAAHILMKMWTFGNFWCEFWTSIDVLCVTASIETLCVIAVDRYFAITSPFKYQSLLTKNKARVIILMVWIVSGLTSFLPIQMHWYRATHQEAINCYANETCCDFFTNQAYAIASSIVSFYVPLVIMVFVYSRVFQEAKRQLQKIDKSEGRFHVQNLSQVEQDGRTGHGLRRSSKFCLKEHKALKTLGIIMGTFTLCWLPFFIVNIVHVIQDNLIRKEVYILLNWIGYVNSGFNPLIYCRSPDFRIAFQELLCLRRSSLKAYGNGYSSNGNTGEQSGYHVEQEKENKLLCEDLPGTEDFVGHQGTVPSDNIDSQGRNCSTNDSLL
# Ecoli rRNA inh = selective bacterial rRNA inhibition in E. coli | E. coli WT GFP vs humanized-ribosome RFP mutants, fluorescence, 24 h; active compounds read low; DMSO median 0, no signal -100 | GFP signal change (wild-type ribosome), % (no concentration beside the values) | actives 1.6% (n = 350,000) | AID 720706;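 active = significant combined selectivity score with lowered wild-type GFP, culture density cut under 30%, mutant RFP and density less affected; inactive = any of these conditions unmet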; also: one replicate is shown; some compounds called inactive have numbers as strong as hits
# ALR H2O2 inh = human ALR oxidase inhibition via reduced H2O2; inhibition, % (concentration not given with the values); purified ALR, DTT oxidation, H2O2 HRP-luminol luminescence; P55789; actives 3.8% (n = 290,000);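 active = mean and each replicate at 75% or more; inconclusive = only one of the two met; inactive = neither met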;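 also: stock transfer was 7.5 nL into about 7.5 µL; 0% = neutral wells and 100% = wells with inactivated enzyme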
# Target sequence (P55789 whole entry, looked up): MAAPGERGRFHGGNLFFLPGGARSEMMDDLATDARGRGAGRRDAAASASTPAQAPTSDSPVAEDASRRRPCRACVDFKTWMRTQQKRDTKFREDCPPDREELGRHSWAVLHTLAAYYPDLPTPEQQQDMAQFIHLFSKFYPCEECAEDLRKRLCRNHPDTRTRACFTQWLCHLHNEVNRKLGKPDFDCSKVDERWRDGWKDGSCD
# UCH37 DUB inh = blocks the human deubiquitinase UCH37 | Q9Y5K5 | purified proteasome/UCH37, Ub-AMC cleavage fluorescence | inhibition, % (test concentration not listed) | actives 0.33% (n = 330,000) | AID 588478;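 active = mean of two replicates above 20%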;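 also: 0% = compound-free wells with enzyme and 100% = wells lacking proteasome; stock transfer was 100 nL into about 20 µL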
# Target sequence (Q9Y5K5 whole entry, looked up): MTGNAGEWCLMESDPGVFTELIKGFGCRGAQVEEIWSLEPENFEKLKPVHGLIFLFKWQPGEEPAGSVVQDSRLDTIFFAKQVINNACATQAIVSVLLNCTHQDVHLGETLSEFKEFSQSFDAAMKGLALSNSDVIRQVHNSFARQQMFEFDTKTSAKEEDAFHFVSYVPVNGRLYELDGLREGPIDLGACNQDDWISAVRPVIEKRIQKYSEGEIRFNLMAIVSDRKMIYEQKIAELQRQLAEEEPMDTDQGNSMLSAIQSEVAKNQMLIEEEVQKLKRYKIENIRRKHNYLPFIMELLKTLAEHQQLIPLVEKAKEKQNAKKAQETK
#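 Material: human UCH37 enzyme supplied as purified proteasome complex. Measure: % inhibition of Ub-AMC cleavage fluorescence. Medium: pH 7.4 Tris-HCl (50 mM) with ovalbumin, ATP-MgCl2, DTT. Times: 30 min preincubation with enzyme, 25 min cleavage at room temperature. Detection: AMC fluorescence intensity at 355/460 nm.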
# E coli growth = E. coli growth inhibition; actives 0.21% (n = 330,000); Escherichia coli growth, OD600, 23 h; active compounds read low; OD600 absorbance (no concentration beside the values); AID 1053175;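 active = OD600 absorbance below the run mean of sample wells minus 3.6 SD, in any replicate, cut at about 0.56 in these data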;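 also: stock transfer was 300 nL into about 60 µL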
# HNF4A DNA FP = change in binding of human HNF4 alpha to DNA; P41235; HNF4a-FITC DNA binding, fluorescence polarization, 1 h; activity change, % at 10 µM; actives 0.3% (n = 360,000); AID 1224865; in the data active = activity change above about 30%, passing the limit was not always enough;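 also: controls were the assay level and a saturating level of protein; the project sought stronger binding though the title names inhibitors; some compounds called inactive have numbers as strong as hits; positive values seem to mean higher polarization but the record does not say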
# Ecoli rRNA inh OD600 = further read-out of Ecoli rRNA inh, marked with its call; OD600 change, %; measured here: OD600 growth;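 optical density of the mix in the first replicate; 0 = DMSO median and -100 = no signal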
# Ecoli rRNA inh RFP = recorded beside Ecoli rRNA inh, whose call it bears; RFP signal change, %; measured here: RFP humanized mutant strains;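 first replicate; 0 = DMSO median and -100 = no signal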
# * = called active by the depositor; i = inactive; ? = inconclusive; / = no result given. Only part of the results is shown, so the mix of outcomes need not match the whole.
nr	smiles	FGF22 binding	B2AR ag	Ecoli rRNA inh	Ecoli rRNA inh OD600	Ecoli rRNA inh RFP	ALR H2O2 inh	UCH37 DUB inh	E coli growth	HNF4A DNA FP
1	COc1ccc(C(C(=O)NC2CCCCC2)N(C(=O)c2ccco2)c2ccccc2OC)cc1 (stereo not drawn)	i	1	-3	-15	2.7	-2	2.3	0.68	3.2
2	CC1=N/C(=C/c2cccnc2)C(=O)O1	i	-1	28	13	1.9	4	0.3	0.67	1.0
3	Cc1ccc(C(C(=O)NC(C)(C)C)N(Cc2cccs2)C(=O)c2csnn2)cc1 (stereo not drawn)	/	9	/	/	/	-8	1.1	0.67	-2.5
4	COc1ccc2nc3sc(C(=O)NCCCN4CCc5ccccc5C4)cc3cc2c1	i	1	-3	-15	6.7	-54	-12	0.68	-0.1
5	O=C(CN1CCN(c2ccccc2)CC1)Nc1nccs1	/	4	/	/	/	?	1.0	0.74	1.3
6	CCCCOc1ccc(C(=O)NCc2ccco2)cc1	/	-6	/	/	/	29	3.5	0.66	1.8
7	Cn1c(SCC(=O)NCC2CCCO2)ncc(C(=O)Nc2ccc(Cl)cc2)c1=O (stereo not drawn)	i	75*	4	2	1.1	20	-181	0.66	2.1
8	Cc1cc(=O)nc2c3ccccc3n(CC(=O)NCCC3=CCCCC3)n12	i	-5	-10	-9	-6.8	-1	1.4	0.7	0.9
9	CSc1ccccc1-c1nnc(-c2ccc(Cl)c(Cl)c2)o1	/	-5	/	/	/	-21	-4.7	0.83	4.4
10	O=C(Nc1ccccn1)c1ccc(=O)[nH]n1	/	0	/	/	/	-1	0.8	0.8	0.1
11	CC1CN(C(=O)c2cc(Br)c(Br)s2)CC(C)O1 (stereo not drawn)	i	1	-1	-5	1.8	3	5.3	0.65	-1.7
12	CCCCn1c(=O)[nH]c(=O)c2c1nc(-c1ccc(-c3ccccc3Br)o1)n2CC	/	0	/	/	/	1	-20	0.73	3.6
13	CCc1cc(=O)oc2cc(C)cc(OCC(=O)NCC(O)c3ccccc3)c12 (stereo not drawn)	i	-5	-12	-20	0.3	0	-62	0.72	0.9
14	Cc1cc2c(N=NC(=O)C3CC3c3ccccc3)c(O)[nH]c2cc1Br (stereo not drawn)	/	0	/	/	/	-3	2.3	0.68	-2.0
15	Cc1c(N/C=C/C(=O)c2cccs2)c(=O)n(-c2ccccc2)n1C	/	0	/	/	/	3	12	0.72	-1.9
16	Cn1c(N)c(C(=O)Nc2c(Cl)cccc2Cl)sc1=S	i	-8	-17	-9	-5.1	99*	6.3	0.71	1.7
17	CCCCOc1ccc(-c2cnc3ccccc3n2)cc1	/	-10	/	/	/	-11	-11	0.68	-1.3
18	Cc1c(C)c2ccc(OCC(=O)Nc3cccnc3)cc2oc1=O	i	0	-1	11	-1.2	-1	-89	0.71	-0.2
19	COc1ccccc1CNC(=O)COc1ccc(S(=O)(=O)N2CCCC2)cc1	i	4	0	0	2.1	-8	2.5	0.67	-0.3
20	COc1ccc(NC(=O)Cn2nc(C(=O)O)c3ccccc3c2=O)cc1S(=O)(=O)N1CCCCC1	i	5	18	21	3.6	1	0.7	0.69	-8.7
21	O=C(Nc1ccc(N2CCOCC2)cc1)c1ccc2ncsc2c1	i	-3	-7	5	-2.2	26	3.8	0.71	1.1
22	Cc1cc(C(=O)NN=C2CCCCCCC2)c2ccccc2n1	i	-4	9	11	-1.6	/	4.1	0.68	-3.4
23	CC1CCC(NC(=O)c2cc3c(s2)CS(=O)(=O)C3)CC1 (stereo not drawn)	i	-10	13	5	-1.9	/	4.8	0.69	0.2
24	COCCn1c(C)cc(C(=O)CSc2nc3ccccc3c(=O)n2Cc2ccco2)c1C	i	19	1	-1	-2.7	-14	/	/	4.0
25	Cc1cccc(N(CC(N)=O)S(C)(=O)=O)c1C	/	-5	/	/	/	34	0.4	0.68	5.7
26	COc1ccccc1-c1ncn(Cc2cccc(-c3ccccc3)c2)c1-c1cc(C)cc(C)c1	i	/	15	16	-0.4	/	/	/	0.7
27	COC(=O)Cc1cc(=O)n2c(nc3ccccc32)[nH]1	i	3	2	-1	2.8	/	/	/	2.9
28	COCC(C)NC(=O)c1ccc(-n2nc(C(F)(F)F)cc2-c2cccs2)cc1 (stereo not drawn)	/	4	/	/	/	-1	1.6	0.68	-3.4
29	COCCNC(=O)c1cn(C)c(=O)c2cc(OC)c(OC)cc12	/	2	/	/	/	-3	-0.5	0.67	1.6
30	COc1cc2c(cc1OC)C(Cc1cc(OC)c(OC)cc1[N+](=O)[O-])=NCC2	i	0	-10	-8	5.9	/	/	/	2.4

# 6 entries from above, sorted by molecular weight, rising.
nr	smiles	FGF22 binding	B2AR ag	Ecoli rRNA inh	Ecoli rRNA inh OD600	Ecoli rRNA inh RFP	ALR H2O2 inh	UCH37 DUB inh	E coli growth	HNF4A DNA FP
25	Cc1cccc(N(CC(N)=O)S(C)(=O)=O)c1C	/	-5	/	/	/	34	0.4	0.68	5.7
22	Cc1cc(C(=O)NN=C2CCCCCCC2)c2ccccc2n1	i	-4	9	11	-1.6	/	4.1	0.68	-3.4
21	O=C(Nc1ccc(N2CCOCC2)cc1)c1ccc2ncsc2c1	i	-3	-7	5	-2.2	26	3.8	0.71	1.1
30	COc1cc2c(cc1OC)C(Cc1cc(OC)c(OC)cc1[N+](=O)[O-])=NCC2	i	0	-10	-8	5.9	/	/	/	2.4
28	COCC(C)NC(=O)c1ccc(-n2nc(C(F)(F)F)cc2-c2cccs2)cc1 (stereo not drawn)	/	4	/	/	/	-1	1.6	0.68	-3.4
24	COCCn1c(C)cc(C(=O)CSc2nc3ccccc3c(=O)n2Cc2ccco2)c1C	i	19	1	-1	-2.7	-14	/	/	4.0

# (more compounds)
nr	smiles	FGF22 binding	B2AR ag	Ecoli rRNA inh	Ecoli rRNA inh OD600	Ecoli rRNA inh RFP	ALR H2O2 inh	UCH37 DUB inh	E coli growth	HNF4A DNA FP
31	CCOC(=O)CCc1c(C)nc2c(c(C)nn2C(C)(C)C)c1C	i	9	-3	-9	-1.5	-27	5.2	0.74	-0.3
32	COC(=O)[C@@H]1C[C@@]2(O)[C@@H](O)[C@@H](O)[C@@H](O)C[C@H]2N1Cc1cc(OC)cc(OC)c1	i	-6	6	16	-5.4	/	3.5	/	1.0
33	O=C(O)c1ccc(-n2nc(C(F)(F)F)c3c2-c2ccoc2CC3)cc1	/	-1	/	/	/	-14	-2.5	0.72	0.2
34	COc1ccc(CN(Cc2ccncc2)C(=O)CCC(=O)O)cc1	/	-3	/	/	/	-2	2.8	0.76	-2.4
35	CCc1[nH]c(=O)c(C#N)c2c1COC(C)(C)C2	/	9	/	/	/	0	-15	0.69	-2.8
36	Cc1cccc(C)c1NC(=O)COC(=O)c1c2c(nc3ccccc13)/C(=C\c1ccc3c(c1)OCO3)CCC2	i	-9	7	10	7.6	14	-319	0.74	-89
37	CCN1C(=NCCc2cccnc2)N[C@@H](c2ccccc2)[C@H](C(=O)OC)[C@H]1C	/	2	/	/	/	-2	-1.1	/	0.2
38	CCc1cccc(CC)c1NC(=O)/C(C#N)=C/c1ccccc1C(F)(F)F	/	33	/	/	/	-53	0.9	0.69	-0.7
39	COc1ccc(/C=N/Nc2nc(-c3ccc(C)cc3)c(NC(C)=O)s2)cc1OC	i	13	20	15	5.6	0	/	/	-2.0
40	CCc1noc(C)c1C(=O)Oc1ccc(N(C)S(=O)(=O)c2ccc(C)cc2)cc1	/	1	/	/	/	-22	5.3	0.71	0.7
41	O=C(CCC(=O)N(CC(=O)NC1CCCCC1)CC1CCCO1)Nc1nccs1 (stereo not drawn)	i	-7	11	-2	0.5	1	-0.5	0.69	0.1
42	COc1cccc(NC(=O)N2CCCC2C(=O)Nc2cc(C)ccc2OC)c1 (stereo not drawn)	i	-1	-1	-14	-2.8	/	0.9	0.69	-4.5
43	Cc1ccccc1-c1cc2nc(NCc3ccncc3)n(C)c(=O)c2s1	i	/	-51	-72	-14	/	/	/	3.5
44	Cc1oc2c(cc(NS(=O)(=O)c3ccc4c5c(cccc35)C(=O)N4)c3ccccc32)c1C(=O)OC(C)C	/	-1	/	/	/	-12	-54	0.7	7.3
45	Cc1ccc(S(=O)(=O)NNC(=O)c2sc3nc(C)cc(C)c3c2-n2cccc2)cc1	/	7	/	/	/	/	3.8	0.67	3.5
46	COC(=O)c1[nH]c2c(c1C)C(=O)CC(c1cc(OC)c(OC)c(OC)c1)C2 (stereo not drawn)	i	6	4	-3	0.5	-2	2.1	0.65	-1.9
47	Cc1cc(Br)c(OCc2ccc(C(=O)N/N=C/c3ccc[nH]3)cc2)c(Br)c1	i	28	-8	-8	-1.9	-5	/	/	2.1
48	CCCn1c(NCc2ccco2)nc2c1c(=O)n(C)c(=O)n2C	/	-5	/	/	/	4	0.0	0.75	-3.6
49	c1ccc2scnc2c1	i	13	1	1	-0.6	/	/	/	-0.8
50	Cc1nc(NCc2ccccc2)c2cc[nH]c2n1	i	-12	2	-8	-0.1	-2	0.3	0.64	1.8
51	CC(C)Cc1nnc(NC(=O)Nc2ccccc2)s1	i	-9	-9	12	-7.6	1	1.5	0.68	-3.7
52	O=C(COc1ccc([N+](=O)[O-])cc1)NCCC1=CCCCC1	/	-3	/	/	/	-6	3.2	0.68	0.7
53	C/C(=N\NC(=O)c1cccc(S(=O)(=O)N2CCCC2)c1)c1ccco1	/	-6	12	12	-2.0	9	/	/	-2.9
54	CC(=O)NCCc1ccc(C(=O)CSc2nnc(C3CC3)n2C2CC2)cc1	i	4	2	-1	0.2	/	2.9	0.66	-1.2
55	CCN(CC)c1nc(OC)nc(-n2nnc(C(C)=O)c2C)n1	/	-11	/	/	/	2	1.7	0.63	-4.1
56	COc1nc(C#N)c(N2CCOCC2)o1	/	4	30	20	1.0	-9	1.0	0.72	-2.9
